# N370S GC mod = N370S glucocerebrosidase modulation, Gaucher chaperone candidate; P04062; N370S GC spleen homogenate, 4MU-glucoside fluorescence; Potency, µM (titrated, usually from 59.4 µM), inactives show at the highest dose activity change, negative = inhibition, actives largely listed as inhibitors; 0.092% of 330,000 active; AID 2101; active = well fitted inhibition curve with a large enough effect; inconclusive = small, poorly fitted or top-dose-only effect, or effect the other way, or another doubt; inactive = no such curve, though single readings can be large or run the other way;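 note: 0% = full enzyme activity and -100% = no enzyme basal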
# The depositor's hits bear a star; ? = inconclusive; [ ] = another dose, or the depositor's remark. Potency is the fitted concentration of half-maximal effect. A portion of the library, and most or all hits are left out here.
N370S GC mod,canonical_smiles
-0.3%,Cc1ccc(OC(=O)c2cc(=O)c3ccccc3o2)cc1
4.3%,O=C(Nc1nc(=O)[nH]s1)c1ccccc1
-19.7%,COc1cc(-c2nc3n(n2)C(c2ccncc2)C2=C(CCCC2=O)N3)cc(OC)c1OC (stereo not given)
-18.3%,Cc1ccccc1COc1ccc(/C(O)=C2/C(=O)C(=O)N(CCCn3ccnc3)C2c2ccco2)cc1 (stereo not given)
-0.9%,CC(Nc1cc(N2CCCC2)ccc1[N+](=O)[O-])c1ccccc1 (stereo not given)
2.7%,O=C(O)CCc1ccc(S(=O)(=O)N2CCOCC2)cc1
11.5%,O=C(COC(=O)C1(c2ccc(F)cc2)CCCC1)Nc1ncc(C(F)(F)F)cc1Cl
-1.1%,CCCCNC(=O)c1cc(-c2ccc(OC)c(OC)c2)on1
10.7%,Cc1ccc(S(=O)(=O)N(CC(=O)Nc2ccccc2C(=O)O)c2ccccc2)cc1
1.9%,O=C(NCCC1CCCCN1S(=O)(=O)c1ccc(F)cc1)C(=O)NCC1CCCO1 (stereo not given)
-1.5%,COc1ccccc1CNC(=O)C1CCC(CNC(=O)[C@@H]2Cc3ccccc3CN2)CC1 (stereo not given in full)
9.2%,CCOC(=O)c1[nH]c2ccc(OC)cc2c1NC(=O)/C=C/c1ccc2c(c1)OCO2
?,CN(Cc1ccccc1)S(=O)(=O)c1ccc2[nH]cc(C(=O)NCC3CCCO3)c(=O)c2c1 (stereo not given)
4.8%,C/C(=C\c1ccccc1)C(=O)n1nnc2ccccc21
4.6%,c1ccc(Cn2cc(CNc3ccccc3)nn2)cc1
-3.9%,Cc1ccc(/C=C2\SC(=S)N(Cc3ccccc3)C2=O)o1
3.9%,C=CCOc1c(Br)cc(/C=C2/NC(=S)N(C(C)=O)C2=O)cc1OC
-9.4%,COc1ccc(-c2nc(NC(=O)CSCCO)sc2C)cc1
-0.7%,CCOc1ccccc1CN1CCNC(=O)C1CC(=O)NCc1nccn1CC (stereo not given)
5.3%,COCCN1CCn2c(nc3cc(NC(=O)c4cccs4)ccc32)C1

# Brought forward from above: six compounds, then new ones.
N370S GC mod,canonical_smiles
4.6%,c1ccc(Cn2cc(CNc3ccccc3)nn2)cc1
-3.9%,Cc1ccc(/C=C2\SC(=S)N(Cc3ccccc3)C2=O)o1
3.9%,C=CCOc1c(Br)cc(/C=C2/NC(=S)N(C(C)=O)C2=O)cc1OC
-9.4%,COc1ccc(-c2nc(NC(=O)CSCCO)sc2C)cc1
-0.7%,CCOc1ccccc1CN1CCNC(=O)C1CC(=O)NCc1nccn1CC (stereo not given)
5.3%,COCCN1CCn2c(nc3cc(NC(=O)c4cccs4)ccc32)C1
-11.8%,COC(=O)c1sccc1NC(=O)c1csc2c1CCCC2
-1.0%,Cc1ccc(OCC(=O)Nc2ccc(C(=O)O)cc2NC(=O)COc2ccc(C)c(C)c2)cc1C
4.0%,CC(=O)c1ccc(CCCC(=O)O)cc1
-0.6%,COc1ccc(-c2ccnc(SCC(=O)N3CCOCC3)n2)cc1
-6.2%,CC1(C)CC(NC(=O)c2cc(COc3cccc(C(F)(F)F)c3)on2)CCO1 (stereo not given)
-3.0%[2.35 µM],COc1ccc(-c2noc(Cc3cccs3)n2)cc1
3.3%,Cn1nnc2cc(C(=O)N3CCC(c4ccccc4)C3)ccc21 (stereo not given)
-16.1%,CCN(CC)S(=O)(=O)c1ccc(OC)c(NC(=O)CC2CCCC2)c1
-6.4%,Cc1cc(C)nc(NC(=O)c2c(Cl)cccc2Cl)n1
4.3%,Cc1ccccc1C(=O)NNC(=O)Cc1ccccc1
-1.1%,CCC(COC)NCc1cn(-c2ccc(F)cc2F)nc1-c1ccccc1C (stereo not given)
15.4%,Cc1cc(NCc2ccccn2)n2nc(C)c(-c3ccc(Cl)cc3)c2n1
3.6%,O=C(/C=C/c1ccccc1F)c1ccoc1
9.8%,Clc1ccc(CNc2nc(CN3CCOCC3)nc3scc(-c4ccccc4)c23)cc1
?,CCOC(=O)c1c(NC(=O)CSc2nnnn2-c2ccccc2)sc2c1CCC(C)C2 (stereo not given)
1.1%,Cc1ccc(S(=O)(=O)N2CCN(C)CC2)cc1C
-1.5%,CCCn1cc(CN2CCC(n3nccc3NC(=O)c3ccccc3)CC2)c(C)n1
13.2%,Cc1ccc(Sc2ccc(C(=O)N(C)C)cc2[N+](=O)[O-])cc1
1.6%,COC(=O)CN1C(c2ccc(Cl)cc2)=Nc2ccc(Cl)cc2C1c1ccccc1 (stereo not given)
15.8%,CCC(=O)N1CCc2cc(S(=O)(=O)NCCCN3CCN(Cc4ccccc4)CC3)ccc21

# Some of the entries so far, with each value named:
> CCOC(=O)c1c(NC(=O)CSc2nnnn2-c2ccccc2)sc2c1CCC(C)C2 (stereo not given)
- N370S GC mod: ?
> Cc1ccc(S(=O)(=O)N2CCN(C)CC2)cc1C
- N370S GC mod: 1.1%
> CCCn1cc(CN2CCC(n3nccc3NC(=O)c3ccccc3)CC2)c(C)n1
- N370S GC mod: -1.5%
> Cc1ccc(Sc2ccc(C(=O)N(C)C)cc2[N+](=O)[O-])cc1
- N370S GC mod: 13.2%

# Reprinted at random: 5 entries already listed
N370S GC mod,canonical_smiles
3.6%,O=C(/C=C/c1ccccc1F)c1ccoc1
-6.4%,Cc1cc(C)nc(NC(=O)c2c(Cl)cccc2Cl)n1
1.6%,COC(=O)CN1C(c2ccc(Cl)cc2)=Nc2ccc(Cl)cc2C1c1ccccc1 (stereo not given)
15.8%,CCC(=O)N1CCc2cc(S(=O)(=O)NCCCN3CCN(Cc4ccccc4)CC3)ccc21
13.2%,Cc1ccc(Sc2ccc(C(=O)N(C)C)cc2[N+](=O)[O-])cc1

# Continued:
N370S GC mod,canonical_smiles
-3.4%,CN(C)C(=O)C(=O)c1c(-c2ccccc2)cc2ccccn12
3.5%,Cc1ccc(N=C2NC(=O)CS2)c(C)c1
0.5%,CCOc1ccc(CCNC(=O)c2ccccc2OCc2c(C)noc2C)cc1OCC
?,COc1ccc(CCNC(=O)c2ccc3c(c2)N(Cc2ccccc2)CCS3)cc1OC
-9.0%,C#CC(CC)(CC)NC(=O)c1nn(-c2ccccc2Cl)c(C)cc1=O
-7.4%,CCOc1cc(C(c2c(C)[nH][nH]c2=O)c2c(C)[nH][nH]c2=O)ccc1OS(=O)(=O)c1ccccc1
-8.0%,COc1ccc(-c2csc(N(CCCN(C)C)C(=O)c3cc(OC)c(OC)c(OC)c3)n2)cc1
1.5%,Cc1ccccc1NC(=O)CCC(=O)N/N=C/c1cccnc1
-1.9%,CC1=C(C(=O)OC(C)C)C(c2cccs2)NC(=O)N1 (stereo not given)
-3.1%,CN(C)S(=O)(=O)c1ccc(Cl)c(NC(=O)COC(=O)c2cc(-c3ccccc3)nc3ccccc23)c1
3.7%,COC(=O)c1cnc2ccccc2n1
15.4%,O=C(CCc1ccccc1)Nc1ccc(NC(=O)C2CC2)nc1
1.6%,CC[C@H]1OC(=O)C[C@@H](O)[C@H](C)[C@@H](O[C@@H]2O[C@H](C)C[C@H](N(C)C)[C@H]2O)[C@@H](CC=O)C[C@@H](C)C(=O)C=C[C@]2(C)O[C@H]2[C@@H]1C
0.8%,C=CCCCCCCCCC(=O)NN
-0.6%,O=C(CN1C(=O)NC2(CCOc3ccccc32)C1=O)NCC(F)(F)F (stereo not given)
23.5%,O=C(CSc1n[nH]c(=O)n1C1CC1)Nc1ccc(Cl)c(Cl)c1
7.1%,COc1ccc([N+](=O)[O-])cc1NC(=O)C(C)OC(=O)C1c2ccccc2Oc2ccccc21 (stereo not given)
2.1%,CCOC(=O)c1c(S(=O)(=O)NCCCc2ccco2)c(C)n(C)c1C
-2.0%,Cc1cc(C)c(NC(=O)c2cnn(C)c2)c(C)c1
-22.2%,COc1ccc(C(C(=O)NC(C)(C)C)N(C(=O)CNC(=O)c2cccs2)c2ccc(C)cc2)cc1OC (stereo not given)
-14.0%,O=C(Cn1cccc1C(=O)c1ccccc1)NCCN1CCOCC1
4.5%,Cc1cccc(OCC(=O)N(Cc2cccs2)C2CCS(=O)(=O)C2)c1C (stereo not given)
20.9%[12.8 µM],COc1ccc(NC(=S)NCc2ccco2)c(OC)c1
3.6%,COc1ccc(C(=O)C2CCCN(C(=O)c3cc4nc(C)cc(C)n4n3)C2)cc1F (stereo not given)
11.5%,CCOC(=O)C1=C(C)NC(C)=C(C(=O)OCC)C1C(=O)OCC(=O)c1ccc2c(c1)OCCO2
?,COc1cc(OC)cc(C(=O)OCn2nnc3ccccc3c2=O)c1
-2.1%,CNS(=O)(=O)c1cccc(C(=O)NC2CCCc3ccccc32)c1 (stereo not given)
-16.6%,O=C(NC(=S)Nc1ccc(Cc2ccncc2)cc1)c1ccccc1
-3.6%,Cc1ccc2c(CC(=O)NC3CCS(=O)(=O)C3)coc2c1C (stereo not given)
0.2%[12.8 µM],C=CCN1c2ccccc2[C@]23C[C@@H](C(=O)OC)N=C2NC(C(=O)OC)=C(C(=O)OC)[C@H]13
8.1%,COc1ccc(NC(=O)CSc2nc(N)c(C#N)cc2C#N)cc1
19.4%,O=C(NCc1cccs1)c1cnc2sccn2c1=O
0.2%,COc1ccc(NC(=O)c2ccco2)cc1S(=O)(=O)N1CCCCC1
0.3%,C#CCNC(=O)C1=C[C@@H](C2CCCCC2)[C@H](CCCO)[C@@H](OCC)O1
-0.7%,O=C(c1ccc2c(=O)n(CC3CCCO3)c(=S)[nH]c2c1)N1CCN(c2ccccc2)CC1 (stereo not given)
3.5%,COc1ccc(N/C=C/C(=O)c2ccc(Cl)cc2)cc1
9.3%,Cc1ccc2nc(-c3ccccn3)cc(C(=O)Nc3ccc(S(=O)(=O)N4CCOCC4)cc3)c2c1
-1.5%,CCN(CC)C(=O)Cn1cnc2sc(C(=O)N3CCN(Cc4ccc5c(c4)OCO5)CC3)c(C)c2c1=O
4.7%,CN(c1cccc(NC(=O)CN(c2cccc(Cl)c2)S(=O)(=O)c2ccccc2)c1)S(C)(=O)=O
16.9%,COc1ccc(/C=C/C(=O)Oc2ccc(C)c(C)c2)cc1OC
-3.8%,CCOC(=O)C(NC(=O)c1ccc(F)cc1)(Nc1sc2c(c1C(N)=O)CCC2)C(F)(F)F (stereo not given)
0.9%,O=S(=O)(/C=C/c1ccccc1)N1CCOCC1
-3.9%,Cc1ccc(S(=O)(=O)N(CC(=O)Nc2ccc(C(N)=O)cc2)C(=O)N2CCN(C)CC2)cc1
-0.3%,CCOc1ccc(C(C(=O)NC2CCCCC2)N(C(=O)c2ccco2)c2ccc(-n3cnnn3)c(C)c2)cc1 (stereo not given)
-2.1%,COc1ccc(NC(=S)NCCc2ccc(S(N)(=O)=O)cc2)c(OC)c1
10.8%[21.6 µM],CN1[C@@H]2CC[C@H]1CC(OC(=O)[C@@H](CO)c1ccccc1)C2 (stereo not given in full)
6.8%,CN(NC(=O)c1ccc(Cl)cc1)c1cccc(Cl)n1
-5.9%,CCN(CC)c1ccc(-n2c(C)cc(C=O)c2C)cc1
0.4%,COc1cccc(NC(=O)Cn2c(=O)oc3cc(S(=O)(=O)N4CCCC4)ccc32)c1
-24.6%,CCc1ccc(-c2cc(C(=O)NN3CCN(C)CC3)c3ccccc3n2)cc1
4.8%,O=C1c2ccc(Br)cc2C(=O)N1c1ccc(Cc2ccncc2)cc1
1.8%,Cn1c(=O)c2c(nc(SCC(=O)Nc3ccccc3)n2C)n(C)c1=O
-2.7%,CCNC(=O)/C(=C/c1cccc([N+](=O)[O-])c1)NC(=O)c1ccc(C)cc1
-13.8%,O=[N+]([O-])c1nn(-c2ccc3c(c2)OCCO3)n(O)c1=NCc1ccc(F)cc1Cl
-22.9%,CC(=O)NC(CC(=O)NC12CC3CC(CC(C3)C1)C2)c1ccccc1 (stereo not given)
-1.0%,COc1cc2c(cc1OC)C(c1ccc(Br)cc1)CC(=O)N2 (stereo not given)
4.0%,COc1cc(NC(=O)c2cnn3c(C(F)F)cc(C4CC4)nc23)c(OC)cc1Cl
6.7%,O=c1c([N+](=O)[O-])c(N2CCOCC2)c2ccccc2n1Cc1ccccc1
-22.4%,Cc1cc(C)cc(N2C(=O)CC(n3ccnc3)C2=O)c1 (stereo not given)
4.7%,Cc1c(C(=O)OCC(=O)N2CC(C)OC(C)C2)oc2ccc(Br)cc12 (stereo not given)

# The list goes on.
N370S GC mod,canonical_smiles
-16.3%,CC(=O)C1=C(C)OC(N)=C(C#N)C1c1ccncc1 (stereo not given)
-12.7%,CN(Cc1cnccn1)C(=O)CC1C(=O)NCCN1Cc1ccc(F)cc1Cl (stereo not given)
-5.6%,CCC(=O)N1c2ccc(S(=O)(=O)NCCc3ccccc3)cc2CC1C (stereo not given)
6.8%,O=C(Cc1ccccc1F)Nc1nc2ccccc2[nH]1
-1.3%,COC(=O)c1ccc(NC(=O)c2ccccc2NS(=O)(=O)c2ccccc2)cc1
24.2%,COc1ccc(C(=O)NNC(=O)CSc2nnc(COc3ccc4ccccc4c3)n2C)cc1
6.7%,CCCc1cc(-c2nc(-c3ccc(C)cc3)cs2)ccn1
21.3%,CN(C)c1cc(-c2ccc(Cl)cc2)oc(=O)c1Cl
1.7%,CCN(CC(=O)Nc1c(F)cccc1F)C(=O)c1ccc(N2C(=O)c3ccccc3C2=O)cc1
7.3%,CCCOc1ccc(C(=O)CCN2CCCCC2)cc1
5.8%,CCOC(=O)c1sc(NC(=O)CSc2nc(C)cc(C)c2C#N)c(C#N)c1C
-5.1%,CN(C)c1ncc(CN2CCC(C(=O)Nc3ccc(-n4cccn4)cc3)CC2)s1
-16.8%,Oc1cc2c(cc1C(c1ccc(Br)cc1)N1CCCC1)OCO2 (stereo not given)
-3.2%,CN(c1ccccc1)S(=O)(=O)c1cccc(NC(=O)Cc2c(F)cccc2Cl)c1
16.6%,CC(Sc1nnc(-c2ccco2)o1)C(=O)NCCC1=CCCCC1 (stereo not given)
2.4%,O=C(NCCN1CCOCC1)c1ccc(CS(=O)(=O)c2c(Cl)cccc2Cl)o1
-8.0%,CCOc1cc(CNCCO)ccc1OCC(=O)NC(C)(C)C
-0.3%[12.8 µM],Cn1c(/C(C#N)=C/Nc2ccccn2)nc2ccccc21
3.7%,Cc1nnc(NC(=O)CCC(=O)NC2CCCCCCC2)s1
-4.1%,Cc1cc(C)nc(SCCC(=O)Nc2ccccc2)n1
-4.8%,O=C1CS/C(=N\C(=O)N2c3ccccc3Sc3ccccc32)N1
